# Compound activity: PubChem, Fisher Drug Discovery Resource Center
# NPYLR7 ag: activates Aedes aegypti NPYLR7 receptor | AID 1259423 | activation, % at 10 µM | HEK293T NPYLR7/Galpha15, GCaMP6s calcium fluorescence | 270,000 compounds, 0.15% hits; in the data active = activation above about 40%;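 note: 0% = vehicle and 100% = reference agonist at the receptor; some compounds past the cut are filed as inactive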
# NPYLR7 ag max-min: second read-out of NPYLR7 ag, no call of its own (marks repeat the call); activation, %; measured here: Max-Min RFU normalised activation; some inactives read as strong as hits;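 span of the calcium signal over five minutes; 0% = vehicle and 100% = native peptide agonist; compound fluorescence can raise it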
# * marks the source's active call; other numbers are inactive results; & = joins results of further samples. The list is partial. The share of hits here may be higher or lower than overall.
SMILES,NPYLR7 ag,NPYLR7 ag max-min
Cc1cc(C)c(S(N)(=O)=O)cc1N(C)S(C)(=O)=O,13,11
COc1ccc(S(=O)(=O)N2CCC(Cc3ccccc3)CC2)cc1N1CCN(C(=O)c2c(OC)cccc2OC)CC1,14,14
COc1ccc(NC(=O)c2cn(C)nc2OC)cc1,4,3
COc1ccc(CNC(=O)CN2CCCC2c2ccc3c(c2)OCCO3)cc1OC (centres undefined),-1,-4
CCn1cnc2c(c(Br)nn2C)c1=O,4,3
CCOC(=O)c1[nH]c(C)c(C(=O)CN(CC)C(=O)COCc2ccccc2)c1C,-3,1
Cc1cnc2c(C(=O)N(C)Cc3cn[nH]c3-c3ccccc3)cnn2c1,21,16
CCc1cc(N2CCN(c3ccccc3F)CC2)nc(SCc2cccc(C(=O)NC3CC3)c2)n1,2,-5
CC(=O)Nc1nc(C(=O)N2CCC(Oc3ccc(C)c(C)c3)CC2)cs1,2,0
CCCc1cc(CN(C)C(=O)CC2C(=O)NCCN2Cc2ccccc2C)[nH]n1 (centres undefined),-2,-6
COc1cc(CN2CCC(C(=O)NC(c3ccc4c(c3)OCO4)c3ccccn3)CC2)cc(OC)c1 (centres undefined),7,-6
CCN(CC)C(=O)[C@@H]1C[C@@H](N)CN1S(=O)(=O)N1CCOCC1,4,2
CCCSc1ncccc1C(=O)NC(Cc1ccccc1)C(=O)OC (centres undefined),-8,-13
N#CC1C(=N)Oc2cc3c(cc2C1c1ccc(Cl)cc1)OCO3 (centres undefined),3,2
CC(C)(C)C(=O)Nc1nc(CC23CC4CC(CC(C4)C2)C3)cs1,3,11
Cc1cccc2[nH]c(CCN(C)C(=O)CC3C(=O)NCCN3CC(C)C)nc12 (centres undefined),9,5
COc1ccc(-c2nnc(NC(=O)C(Cc3ccccc3)NC(=O)NCc3ccccc3)s2)cc1 (centres undefined),1,15
Cc1noc(C)c1CCCNC(=O)c1ccc(-c2ccncc2)nc1,-2,0
O=C(Nc1ccc2ccccc2n1)C1CC2CCC1C2 (centres undefined),0,-1
O=C(c1ccc(Cl)cc1)N(Cc1cccnc1)Cc1nccn1Cc1ccccc1F,12,28
O=C(Nc1cccc(Cl)c1)C(C1CCCC1)N1CCN(C(=O)c2ccc(Cl)c(Cl)c2)CC1 (centres undefined),-1,-1
CC(=O)Nc1cccc(C(C)NC(=O)Nc2ccccc2N2CCCCC2)c1 (centres undefined),-9,-7
COc1ccc(Cn2cnc3c4ccccc4n(CC(=O)Nc4cccc(C)c4)c3c2=O)cc1,5,-2
Cc1ccsc1C(O)c1nnc(N(C)c2ccccc2)s1 (centres undefined),-2,-1
COc1ccc(CC(=O)N2CCC[C@@H]2C(=O)NC2CCCC[C@H]2N(Cc2cccc(C)c2)C(=O)c2ccc(OC)cc2)cc1 (some centres undefined),-4,2
COc1ccc(-n2c(CCC(=O)NCc3cccc(Cl)c3)ccc2-c2ccc(Cl)cc2)cc1,1,-4
CC(=O)N1CCC(C(=O)N2CCN(C3c4ccccc4CCc4ccccc43)CC2)CC1,-4,-2
CC(C)(C)c1ccc(NC(=O)N2CC(=O)N3CCc4ccc(F)cc4C3C2)cc1 (centres undefined),-1,16
CCCc1nn(-c2ccc(F)cc2)c(CC)c1C(=O)NCc1ccncc1,32,35
O=C(c1ccc(Br)cc1)N(Cc1cccc(OS(=O)(=O)c2ccc(F)cc2)c1)Cc1ccco1,23,29
COc1ccc(C(=O)Oc2cccc(-c3nc4cc(C)ccn4c3NCc3ccccc3)c2)cc1,12,11
COc1cccc(-n2ccc3nc4ccn(CCO)c(=O)c4cc3c2=O)c1,-1,3
COC(=O)c1c(F)cc(C#N)cc1NC(CO)Cc1ccccc1 (centres undefined),-3,-3
CCN(Cc1nc2ccccc2c(=O)[nH]1)C(=O)C=Cc1cccc2ccccc12,15,3
CCn1nc(C)c(CN2CCC(n3nccc3NC(=O)Cc3ccccc3)CC2)c1C,0,-2
CCCc1nc(N2CCN(C(=O)c3ccc(Br)cc3)CC2)c2c(C)nn(-c3ccccc3)c2n1,-1,4
CCN1/C(=C\C=C(\C#N)C(=O)Nc2ccccc2)C=Cc2cc(C)ccc21,3,2
COc1ccc(CN2CCCC(CNC(=O)c3ccc(F)cc3)C2)c(F)c1 (centres undefined),19&2,6&2
CSc1nc2cc(Oc3ccc4ccccc4c3Br)c(Cl)cc2[nH]1,5,-2
O=C(NCc1ccco1)N(C(=O)c1c2c(nc3ccccc13)CCNC2)c1ccccc1,0,-4

# Random excerpt: 2 compounds from above.
SMILES,NPYLR7 ag,NPYLR7 ag max-min
COc1ccc(C(=O)Oc2cccc(-c3nc4cc(C)ccn4c3NCc3ccccc3)c2)cc1,12,11
CCCc1nc(N2CCN(C(=O)c3ccc(Br)cc3)CC2)c2c(C)nn(-c3ccccc3)c2n1,-1,4

# Additional structures follow.
SMILES,NPYLR7 ag,NPYLR7 ag max-min
CN(Cc1nc(-c2cccnc2)no1)C(=O)CC1COCCN1 (centres undefined),12,10
CC(C)N(Cc1ccccc1)CC(O)COCc1ccccc1Cl (centres undefined),9,7
COc1ccc(OCCSc2nc3ccccc3n2CCOc2ccccc2)cc1,-13,-22
CCCCCCn1c(CN2CCCCC2CC)nc2c1c(=O)n(C)c(=O)n2C (centres undefined),-1,-3
O=C(O)c1cc2ccccc2c(OCC(F)(F)F)n1,-3,-4
CCc1cc2c(-c3nn4c(-c5ccc(OC)c(OC)c5)nnc4s3)csc2s1,-4,-5
CCCCN(CC(=O)N1CCc2sccc2C1c1ccc(Cl)cc1Cl)C(=O)c1ccc(Cl)c(Cl)c1 (centres undefined),-1,-5
CCOC(=O)c1c(NC(=O)CN2C(=O)C3CC=C(Cl)CC3C2=O)sc2c1CCCCC2 (centres undefined),-12,-14
CC(C)/C=C/C(=O)N1CCC(N2CCC(C(=O)NCC3CCCO3)CC2)CC1 (centres undefined),4&-1,2&-3
CN(C(=O)c1ccsc1)C(Cc1ccccc1)C1CCN(C(=O)C2=CCCC2)CC1 (centres undefined),5,-1
COc1ccccc1/C=C/C=C1\N=C(c2ccc(C)c([N+](=O)[O-])c2)OC1=O,1,2
Cc1cc(C(=O)N(Cc2ccco2)c2nc3c(F)cccc3s2)n(C)n1,9,6
COc1ccc(S(=O)(=O)N(Cc2nccn2Cc2c(C)cc(C)cc2C)C(C)C)cc1,1,5
COCCN(CCOC)c1nc(-c2ccc(Oc3ccccc3)cc2)nc2ccccc12,0,3
CONC(=O)c1ccc(CNC(=O)C23CC4CC(CC(C4)C2)C3)cc1,-8,-5
Cc1cc(C)c(NC(=O)CN(C)S(=O)(=O)c2c(C)noc2C)c(C)c1,1,-2
O=C(NCC(F)(F)F)c1cncn1-c1cccc(-c2cccc(Cl)c2)c1,17,23
COCCN(CC(=O)Nc1nc(CC(=O)O)cs1)C(=O)c1ccc(Cl)cc1Cl,-4,-8
Cc1cc(=O)[nH]c(NN=Cc2c[nH]c3ccccc23)n1,4,3
CCC(C)NC(=O)c1c(C)nn(-c2ccc(F)cc2)c1C (centres undefined),-1,-2
Cc1ccccc1C(=O)NC(C(=O)Nc1cc(Cl)ccc1Cl)C(C)C (centres undefined),-3,-4
COc1ccc(C(=O)NCc2ccc(N3CCS(=O)(=O)CC3)cc2)cc1F,6,1
COCCN1C(=O)N(Cc2cccnc2)C(=O)C12CCN(Cc1ccccc1-c1ccco1)CC2,16,5
Cc1nn2c(NCCCn3ccnc3)cc(C(C)(C)C)nc2c1-c1ccccc1,-1,35
Cc1ccc2nc(Nc3nc(C)cc(-c4ccccc4)n3)[nH]c(=O)c2c1,2,-4
Cc1ccccc1C(=O)Nc1ccc2c(c1)S(=O)(=O)N=C(c1ccco1)N2c1ccc(F)cc1,-4,-3
COc1ccc(-c2ccccc2)cc1-n1c(-c2cc(-c3ccccc3)nc3ccccc23)n[nH]c1=S,-4,-10
Cc1nccn1CCC(NC(=O)c1ccc(=O)n(C)c1)c1ccccc1 (centres undefined),2,-3
Cc1ccc(-c2nc3cc(C)ccn3c2NC(C)(C)CC(C)(C)C)cc1,-3,5
CCOc1ccc(C(=O)Nc2ccc(-c3nc4cc(C)ccc4o3)cc2)cc1,0,-11
CCc1nc2ccc(C(=O)Nc3cccc(OC)c3)cn2c1N(C)C(=O)c1cccc(OC)c1,-4,28
COCCCNC(=O)[C@@H](C)N1Cc2ccc(-c3cccc(F)c3)nc2C1=O,-14,-15
COc1ccc2c(C)c(C(=O)NCc3cc(CC(C)C)on3)oc2c1,-4,-5
CC(C)OC(=O)CCCCCN1C(=O)CSC1=S,3,1
Cc1nc(C(=O)NCc2cccc(OC(F)(F)F)c2)cs1,-2,-4
CCOc1ccc(C=C2C(=O)NC(=S)NC2=O)cc1OC,7,5
O=C(Nc1nnc(C2CC2)s1)c1cccs1,-7,-12
COc1ccc(C=C2CCCC3=C2NC(NC#N)=NC3c2ccc(OC)cc2)cc1 (centres undefined),6,5
c1ccc2c(c1)CCN2c1ncnc2c1nc1n2CCCCC1,3,-1
CNC(=O)C[C@H]1c2cccnc2C(=O)N(Cc2ccccc2)[C@@H]1C(=O)NC,4,14

# Part of the list above in order of SMILES length, rising.
SMILES,NPYLR7 ag,NPYLR7 ag max-min
O=C(Nc1nnc(C2CC2)s1)c1cccs1,-7,-12
CC(C)OC(=O)CCCCCN1C(=O)CSC1=S,3,1
CCOc1ccc(C=C2C(=O)NC(=S)NC2=O)cc1OC,7,5
Cc1nc(C(=O)NCc2cccc(OC(F)(F)F)c2)cs1,-2,-4
CCC(C)NC(=O)c1c(C)nn(-c2ccc(F)cc2)c1C (centres undefined),-1,-2
Cc1cc(=O)[nH]c(NN=Cc2c[nH]c3ccccc23)n1,4,3
Cc1nccn1CCC(NC(=O)c1ccc(=O)n(C)c1)c1ccccc1 (centres undefined),2,-3
Cc1ccccc1C(=O)NC(C(=O)Nc1cc(Cl)ccc1Cl)C(C)C (centres undefined),-3,-4
Cc1ccc(-c2nc3cc(C)ccn3c2NC(C)(C)CC(C)(C)C)cc1,-3,5
CCOc1ccc(C(=O)Nc2ccc(-c3nc4cc(C)ccc4o3)cc2)cc1,0,-11
Cc1ccc2nc(Nc3nc(C)cc(-c4ccccc4)n3)[nH]c(=O)c2c1,2,-4
COc1ccc(C=C2CCCC3=C2NC(NC#N)=NC3c2ccc(OC)cc2)cc1 (centres undefined),6,5
COCCCNC(=O)[C@@H](C)N1Cc2ccc(-c3cccc(F)c3)nc2C1=O,-14,-15
CNC(=O)C[C@H]1c2cccnc2C(=O)N(Cc2ccccc2)[C@@H]1C(=O)NC,4,14
CCc1nc2ccc(C(=O)Nc3cccc(OC)c3)cn2c1N(C)C(=O)c1cccc(OC)c1,-4,28
Cc1ccccc1C(=O)Nc1ccc2c(c1)S(=O)(=O)N=C(c1ccco1)N2c1ccc(F)cc1,-4,-3
COc1ccc(-c2ccccc2)cc1-n1c(-c2cc(-c3ccccc3)nc3ccccc23)n[nH]c1=S,-4,-10

# The results go on:
SMILES,NPYLR7 ag,NPYLR7 ag max-min
CCC(=O)N1c2ccccc2N=C2CC(C)(C)CC(=O)C2C1c1ccc2c(c1)OCO2 (centres undefined),-2,-2
Fc1ccc(CSCc2csc(-c3ccc(Cl)cc3)n2)cc1,2,-3
CC1(C(=O)NCc2cccs2)CCN1Cc1ccccc1Cl (centres undefined),4,-5
C[C@H](C(=O)NCCOc1ccccc1)N1Cc2ccc(Nc3ncccn3)nc2C1=O,6,2
Cc1cccc(C2CCCN2C(=O)NC(C)Cc2ccc(O)cc2)c1 (centres undefined),4,3
O=C(NCc1ccco1)c1cccnc1Nc1cccc(Cl)c1,2,-4
O=S(=O)(NC1CCCc2ccccc21)c1ccc(Br)cc1 (centres undefined),3,0
CCCNC(=O)NCC(=O)N(C)Cc1ccc(Br)cc1,0,1
CN(Cc1cccc2c1OCCO2)C1CCCN(c2cccnn2)C1 (centres undefined),5,4
CCCCc1ccc(C(=O)N(CC)CC(=O)Nc2cc(C(C)(C)C)nn2-c2cccc(C)c2)cc1,5,15
O=C(CC(NCCC1=CCCCC1)C(=O)O)Nc1cccnc1 (centres undefined),-2,-3
Cc1cc(C(F)(F)F)c(C#N)c(SCC(=O)NC2CC2)n1,-7,9
CC(C)c1nnsc1CN1C[C@H]2C[C@H](O)[C@@H](O)C[C@H]2C1,3,1
Cc1cccc2c1C(NC(=O)Cc1c(C)nn(-c3ccccc3)c1C)C(=O)N2 (centres undefined),3,-1
CN1CCN(c2ncnc3c2nc2n3CCCCC2)CC1,4,2
CS(=O)(=O)N1CCN=C1SCc1cccnc1,2,2
CCn1cnnc1C(C)Nc1ncc2c(n1)CCN2c1ccccc1 (centres undefined),12,7
COCCN(Cc1cccc(OS(=O)(=O)c2ccc(F)cc2)c1)C(=O)Nc1ccc(Cl)cc1Cl,-13,-8
Cc1nc(CN2CCC(CNc3cncc(Cl)n3)CC2)oc1C,8,6
COc1cccc(Cc2nsc(N3CCN(C(=O)C(Cl)Cl)CC3)n2)c1,26,26
Cc1cc2cc(CNC(=O)Nc3c[nH]c4ccccc34)ccc2[nH]1,-4,-3
CC(c1ccccc1)n1cnc2c1C(=O)c1ccccc1C2=O (centres undefined),3,-1
CCn1cc(C(CC(=O)NCc2ccc3c(c2)OCO3)c2cc(OC)cc(OC)c2)c2ccccc21 (centres undefined),3,6
Cc1ccc(C)c(C(=O)OCC(=O)N2CC(C)CC(C)C2)c1 (centres undefined),1,0
Nc1ccc(NCC2CCCO2)c(C(=O)O)c1 (centres undefined),4,2
CCn1cc(C(=O)N2CCc3[nH]nc(-c4ccc(F)c(F)c4)c3C2)cn1,5,1
CC(C)n1cnnc1CN(C)C(=O)c1ccc(CSc2ncccn2)o1,-5,-6
O=C(c1ccc(N2CCCCC2)cc1)N1CCc2c([nH]c3ccccc23)C1c1ccccn1 (centres undefined),16,11
Cc1cc(NC(=O)CSc2nccn2-c2cccc(C)c2C)on1,9,5
